Vaccinia inh – blocks a specific stage of Vaccinia orthopoxvirus infection; AID 1053133; activity change (mCherry), % (test concentration not listed); 89,000 tested, 0.01% active; Vaccinia-infected cells, mCherry/Venus stage reporter fluorescence; stronger effect = lower value; some inactives read as strong as hits;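 active = mCherry past -33% and 40 or more points under the early reporter, replicates agreeing; inconclusive = past -33% without that gap or agreement; tested in A549 cells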;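 also: scaled between vehicle wells and reference inhibitor wells; 23 nL library stock went into each well; one replicate is shown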
Vaccinia inh Venus – also measured in Vaccinia inh; calls as there; activity change (Venus), %; measured here: Venus reporter, other viral stage;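 negative = less Venus signal; first of two replicates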
* marks the source's active call; other numbers are inactive results; ? = inconclusive; nt = not tested or not shown.

SMILES	Vaccinia inh	Vaccinia inh Venus
COc1ccc(CN(C)C[C@H]2Oc3ccc(NC(=O)CCN4CCOCC4)cc3C(=O)N([C@@H](C)CO)C[C@H]2C)cc1	10.0	8.4
CCCNC(=O)NC[C@H]1[C@@H](c2ccc(C3=CCCC3)cc2)[C@@H](CO)N1C(=O)CC	9.7	12.8
COc1ccc(NC(=O)N(C)C[C@H]2Oc3c(NC(=O)C4CCOCC4)cccc3C(=O)N([C@@H](C)CO)C[C@H]2C)cc1	10.2	2.8
COc1ccc(S(=O)(=O)N(C)C[C@H]2Oc3cc(C#CC4CC4)ccc3S(=O)(=O)N([C@@H](C)CO)C[C@H]2C)cc1	?	nt
C[C@@H]1CN([C@@H](C)CO)C(=O)c2cc(NC(=O)CCC(F)(F)F)ccc2O[C@@H](C)CCCCO[C@H]1CN(C)S(=O)(=O)c1ccccc1	-0.7	-6.1
O=C(NCC1CC1)[C@@H]1[C@@H](CO)[C@@H]2Cn3c(ccc(-c4cccnc4)c3=O)[C@H]1N2Cc1nccs1	3.6	10.5
CN(C)C(=O)[C@@H]1[C@@H](CO)[C@@H]2Cn3c(ccc(-c4ccc(F)cc4)c3=O)[C@@H]2N1C(=O)c1ccccn1	-3.0	1.6
C[C@H](CO)N1C[C@H](C)[C@H](CN(C)Cc2ccc(C(F)(F)F)cc2)Oc2ccc(NS(C)(=O)=O)cc2C1=O	-5.1	-5.4
C[C@H]1CN([C@@H](C)CO)C(=O)Cc2cc(NS(=O)(=O)c3ccc(F)cc3)ccc2O[C@@H]1CN(C)CC1CC1	13.9	0.5
C[C@@H]1CN([C@@H](C)CO)S(=O)(=O)c2ccc(C#CC(C)(C)O)cc2O[C@H]1CN(C)Cc1ccc(-c2ccccc2)cc1	?	nt

Entries above that have fluorine, in the order listed:
SMILES	Vaccinia inh	Vaccinia inh Venus
C[C@@H]1CN([C@@H](C)CO)C(=O)c2cc(NC(=O)CCC(F)(F)F)ccc2O[C@@H](C)CCCCO[C@H]1CN(C)S(=O)(=O)c1ccccc1	-0.7	-6.1
CN(C)C(=O)[C@@H]1[C@@H](CO)[C@@H]2Cn3c(ccc(-c4ccc(F)cc4)c3=O)[C@@H]2N1C(=O)c1ccccn1	-3.0	1.6
C[C@H](CO)N1C[C@H](C)[C@H](CN(C)Cc2ccc(C(F)(F)F)cc2)Oc2ccc(NS(C)(=O)=O)cc2C1=O	-5.1	-5.4
C[C@H]1CN([C@@H](C)CO)C(=O)Cc2cc(NS(=O)(=O)c3ccc(F)cc3)ccc2O[C@@H]1CN(C)CC1CC1	13.9	0.5

Continuation.
SMILES	Vaccinia inh	Vaccinia inh Venus
CCC(=O)N(C)C[C@@H]1[C@@H](c2ccc(C3=CCCC3)cc2)[C@H](CO)N1C(=O)CC	6.6	12.9
C[C@@H]1CN([C@H](C)CO)C(=O)c2cccc(NS(=O)(=O)c3ccccc3)c2O[C@H]1CN(C)C(=O)Nc1ccc2c(c1)OCO2	0.6	9.3
COc1ccc2c3c([nH]c2c1)[C@@H](CO)N(C(=O)c1ccncc1)CC31CN(C)C1	15.5	9.5
COc1ccccc1NC(=O)N(C)C[C@@H]1OCc2ccccc2-c2c(n(C)c3ccccc23)C(=O)N([C@@H](C)CO)C[C@@H]1C	-30.1	-30.2
Cc1ccc(-c2cnc3c(c2)C(=O)N([C@H](C)CO)C[C@H](C)[C@H](CN(C)C(=O)Cc2cccnc2)O3)cc1	11.4	3.3
COc1ccc(S(=O)(=O)Nc2ccc3c(c2)C(=O)N([C@H](C)CO)C[C@H](C)[C@@H](CN(C)C(=O)Nc2ccc4c(c2)OCO4)OCCCC[C@@H](C)O3)cc1	8.7	13.1
C[C@H]1CCCCO[C@@H](CN(C)Cc2ccncc2)[C@@H](C)CN([C@@H](C)CO)C(=O)c2cc(NC(=O)c3ccncc3)ccc2O1	33.5	-1.3
N#C[C@H]1[C@@H](c2ccc(C#CC3CC3)cc2)[C@@H](CO)N1C(=O)c1cccc(F)c1	4.4	-0.4
C[C@H]1CN([C@@H](C)CO)S(=O)(=O)c2ccc(-c3cncnc3)cc2O[C@@H]1CN(C)C(=O)Cc1ccncc1	17.1	15.4
CCCNC(=O)N1C[C@@H](O)COC[C@H]2O[C@H](CC(=O)N3CCOCC3)CC[C@@H]21	15.5	10.1
Cn1cnc(CCNC(=O)C[C@@H]2CC[C@@H]3[C@H](COC[C@@H](O)CN3C(=O)Nc3ccccc3)O2)c1	5.9	10.1
C[C@H]1CN([C@@H](C)CO)C(=O)Cc2cc(NC(=O)Cc3ccccc3)ccc2O[C@H]1CN(C)Cc1ccccc1	-15.1	-4.9
C[C@@H]1CN([C@@H](C)CO)C(=O)c2cccc(NC(=O)Nc3ccccc3)c2O[C@@H]1CN(C)Cc1ccccc1	-23.1	-17.6
N#C[C@H]1[C@H](c2ccc(C3=CCCCC3)cc2)[C@@H](CO)N1S(=O)(=O)c1ccccc1	-19.7	-19.2
CCNC(=O)C[C@H]1CC[C@H]2[C@H](COc3ccc(NC(=O)c4cccs4)cc3C(=O)N2C)O1	7.5	13.2
C[C@@H]1CN([C@H](C)CO)C(=O)CCCn2cc(nn2)CO[C@H]1CN(C)S(=O)(=O)c1cn(C)cn1	16.9	19.1
C[C@H]1CN([C@@H](C)CO)C(=O)CCCn2nncc2CO[C@@H]1CN(C)Cc1cccc(C(F)(F)F)c1	-5.5	3.8
CO[C@@H]1CN(C)C(=O)c2cc(NS(C)(=O)=O)ccc2OC[C@H](C)N(C(=O)CC2CC2)C[C@H]1C	10.8	8.0
C[C@H](O)C#Cc1cnc2c(c1)C(=O)N([C@H](C)CO)C[C@H](C)[C@@H](CN(C)C(=O)Nc1ccc(F)cc1)O2	23.2	16.3
CCCC(=O)Nc1ccc2c(c1)C(=O)N(C)[C@H]1CC[C@H](CC(=O)NCC3CC3)O[C@@H]1CO2	-18.9	-26.4
C[C@H](CO)N1C[C@H](C)[C@@H](CN(C)C(=O)Nc2ccc(F)cc2)Oc2c(cccc2N(C)C)C1=O	10.5	1.2
CO[C@H]1CC[C@H]2CCN(C)C(=O)[C@@H](C)N(C)C(=O)c3cccc(C#N)c3OC[C@@H]1O2	0.7	-9.9
COc1cccc(S(=O)(=O)N2CC3(CN[C@H](CO)c4c3c3ccc(OC)cc3n4C)C2)c1	8.2	1.1
COc1ccc(NC(=O)Nc2ccc3c(c2)C(=O)N([C@@H](C)CO)C[C@@H](C)[C@H](CN(C)S(=O)(=O)c2ccc(Cl)cc2)OCCCC[C@@H](C)O3)cc1	10.6	18.0
C[C@H]1CN([C@@H](C)CO)C(=O)c2cc(C#CCN(C)C)cnc2O[C@@H]1CN(C)C(=O)Nc1cc(F)ccc1F	6.4	-0.1
CO[C@@H]1CN(C)C(=O)c2ccc(NC(=O)c3cc(C)on3)cc2OC[C@H](C)NC[C@@H]1C	-7.0	0.5
CC(=O)NC[C@H]1[C@@H](c2ccc(-c3ccccc3F)cc2)[C@@H](CO)N1C(=O)C1CC1	3.3	9.4
CN1C(=O)c2cc(NC(=O)c3ccc(Cl)cc3)ccc2OC[C@@H]2O[C@H](CC(=O)NCc3cccc(F)c3)CC[C@H]21	-31.5	-22.6
CN(C)CCCCCCNC(=O)[C@@H]1C[C@@H]2C(=O)N3CCC[C@H]3C(=O)N2[C@@H]1c1ccc(O)cc1	22.6	2.6
CC(=O)N(C[C@H]1N[C@H](CO)[C@@H]1c1ccc(-c2ccccc2)cc1)C(C)C	-30.5	-17.8

Some of the entries so far, with each value named:
> COc1ccc(S(=O)(=O)Nc2ccc3c(c2)C(=O)N([C@H](C)CO)C[C@H](C)[C@@H](CN(C)C(=O)Nc2ccc4c(c2)OCO4)OCCCC[C@@H](C)O3)cc1
  Vaccinia inh = 8.7	Vaccinia inh Venus = 13.1

> C[C@H]1CCCCO[C@@H](CN(C)Cc2ccncc2)[C@@H](C)CN([C@@H](C)CO)C(=O)c2cc(NC(=O)c3ccncc3)ccc2O1
  Vaccinia inh = 33.5	Vaccinia inh Venus = -1.3

> N#C[C@H]1[C@@H](c2ccc(C#CC3CC3)cc2)[C@@H](CO)N1C(=O)c1cccc(F)c1
  Vaccinia inh = 4.4	Vaccinia inh Venus = -0.4

Further records follow:
SMILES	Vaccinia inh	Vaccinia inh Venus
COc1ccc(S(=O)(=O)Nc2ccc3c(c2)CC(=O)N([C@H](C)CO)C[C@@H](C)[C@H](CN(C)S(=O)(=O)c2ccc(Cl)cc2)O3)cc1	15.8	12.9
Cc1ccc(S(=O)(=O)N(C)C[C@@H]2Oc3ccc(NC(=O)C4CC4)cc3CC(=O)N([C@@H](C)CO)C[C@H]2C)cc1	-6.5	-3.7
O=S(=O)(N[C@H]1CC[C@@H](CCn2cc(Cc3ccccc3)nn2)O[C@@H]1CO)c1ccccc1F	1.5	-1.5
C[C@H](CO)N1C[C@H](C)[C@H](CN(C)S(=O)(=O)c2cccs2)Oc2ccc(NC(=O)CCN3CCOCC3)cc2C1=O	-0.8	-2.3
C[C@H](CO)N1C[C@H](C)[C@H](CN(C)Cc2ccccc2F)Oc2cc(C#CCN(C)C)ccc2S1(=O)=O	-16.9	-7.5
O=C(Cc1ccccc1)N1C[C@H]2[C@@H](c3ccccc31)[C@@H](CO)N2C(=O)Nc1ccc(F)cc1	4.7	-1.5
C[C@H]1CCCCO[C@H](CN(C)S(=O)(=O)c2ccc(Cl)cc2)[C@@H](C)CN([C@@H](C)CO)C(=O)c2cc(NC(=O)c3ccncc3)ccc2O1	?	nt
COCC(=O)N1[C@H](C#N)[C@@H](c2ccccc2C2=CCCC2)[C@@H]1CO	-12.4	-4.4
CNC[C@@H]1OCCCC[C@@H](C)Oc2ccc(NC(=O)NC(C)C)cc2C(=O)N([C@H](C)CO)C[C@@H]1C	23.5	12.3
O=C(Cc1ccccn1)N[C@@H]1CC[C@@H](CCn2cc(-c3cccnc3)nn2)O[C@H]1CO	16.4	7.8
COc1ccc(CN(C)C[C@H]2OCCCC[C@@H](C)Oc3ccc(NS(=O)(=O)c4ccc(Cl)cc4)cc3C(=O)N([C@H](C)CO)C[C@@H]2C)cc1	?	nt
CCCNC(=O)N(C)C[C@@H]1Oc2ncc(C#Cc3ccncc3)cc2C(=O)N([C@H](C)CO)C[C@@H]1C	17.0	-1.1
Cc1ccc(S(=O)(=O)Nc2ccc3c(c2)C(=O)N([C@@H](C)CO)C[C@H](C)[C@H](CN(C)C(=O)Nc2cccc4ccccc24)OCCCC[C@@H](C)O3)cc1	17.6	14.1
C[C@@H]1CN([C@@H](C)CO)C(=O)CCCn2nncc2CO[C@@H]1CN(C)S(=O)(=O)c1ccc(F)cc1	0.2	16.0
C[C@@H]1CN([C@H](C)CO)C(=O)c2cc(-c3ccccc3)cnc2O[C@@H]1CN(C)Cc1ccccn1	-1.1	6.2
Cc1ccc(S(=O)(=O)Nc2ccc3c(c2)C(=O)N([C@H](C)CO)C[C@H](C)[C@@H](CN(C)C(=O)Nc2cccc4ccccc24)OCCCC[C@@H](C)O3)cc1	23.4	19.0
CC(C)NC(=O)Nc1ccc2c(c1)CC(=O)N([C@@H](C)CO)C[C@@H](C)[C@@H](CN(C)C(=O)Nc1cccc3ccccc13)O2	15.4	14.1
C/C=C/c1ccc([C@@H]2[C@H](CO)N(CC3CC3)C23CN(S(=O)(=O)CC)C3)cc1	-2.5	-4.3
N#C[C@H]1[C@H](c2ccc(C#CC3CC3)cc2)[C@H](CO)N1S(=O)(=O)c1ccccc1	-6.2	-6.4
C[C@@H]1CN([C@@H](C)CO)C(=O)c2cc(NC(=O)CCC(F)(F)F)ccc2O[C@@H](C)CCCCO[C@H]1CN(C)C(=O)Nc1ccc(C(F)(F)F)cc1	-14.2	-15.9
C[C@H]1CN([C@@H](C)CO)C(=O)c2cc(NC(=O)Cc3cn(C)c4ccccc34)ccc2O[C@H]1CN(C)S(=O)(=O)c1cccs1	12.1	1.2
CC(C)C#Cc1ccc([C@H]2[C@@H](CO)N3C(=O)CN(S(=O)(=O)c4ccccc4)C[C@@H]23)cc1	?	nt
C[C@@H]1CN([C@@H](C)CO)C(=O)c2cc(C3=CCCCC3)cnc2O[C@H]1CN(C)C(=O)Cc1ccccc1	-17.1	-15.4
COc1ccc(NC(=O)N[C@H]2CC[C@@H](CC(=O)NC3CCCCC3)O[C@@H]2CO)cc1	2.7	2.2
O=C(C[C@H]1C[C@H]2c3cc(NC(=O)CC4CC4)ccc3O[C@H]2[C@@H](CO)O1)NCc1cccc(F)c1	2.3	0.7
C[C@@H]1CN([C@@H](C)CO)C(=O)Cc2cc(NS(=O)(=O)c3ccc(Cl)cc3)ccc2O[C@@H]1CN(C)S(=O)(=O)c1cccs1	-2.0	-7.8
C[C@@H]1CN([C@@H](C)CO)S(=O)(=O)c2ccc(C#Cc3ccc(F)cc3)cc2O[C@H]1CN(C)C(=O)c1ccccn1	?	nt
COCCNC(=O)C[C@@H]1C[C@@H]2c3cc(NC(=O)Nc4ccc(OC)cc4)ccc3O[C@@H]2[C@H](CO)O1	13.0	9.7
CC(C)NC(=O)Nc1ccc2c(c1)C(=O)N([C@H](C)CO)C[C@H](C)[C@H](CN(C)CC1CCCCC1)OCCCC[C@@H](C)O2	5.8	-3.4
CO[C@@H]1CN(C)C(=O)c2cc(NC(C)=O)ccc2OC[C@@H](C)N(Cc2ccncc2)C[C@@H]1C	5.7	8.7
O=C([C@@H]1[C@@H](CO)[C@@H]2Cn3c(cccc3=O)[C@H]1N2S(=O)(=O)c1ccccc1F)N1CCCCC1	-2.6	7.8
COc1ccccc1NC(=O)N(C)C[C@H]1OCc2ccccc2-c2c(n(C)c3ccccc23)C(=O)N([C@@H](C)CO)C[C@H]1C	-29.3	-20.4
CO[C@H]1CN(C)C(=O)c2cc(NC(=O)Nc3ccc(C(F)(F)F)cc3)ccc2OC[C@@H](C)NC[C@H]1C	?	nt
O=C(NCCCN1CCOCC1)[C@@H]1N[C@@H]2c3ccc(C4=CCCCC4)c(=O)n3C[C@@H]2[C@H]1CO	3.8	-3.1
C/C=C/c1cnc2c(c1)C(=O)N([C@H](C)CO)C[C@H](C)[C@H](CN(C)S(=O)(=O)c1ccccc1F)O2	14.3	9.1
CCC(=O)N1C[C@@H](C)[C@@H](OC)CN(C)C(=O)c2ccc(NC(=O)Nc3cccc(F)c3)cc2OC[C@H]1C	0.2	1.2

Only part of the results is shown, so the mix of outcomes need not match the whole.
